# RanGTP-Imp inh: disruptors of Ran-importin-beta complex formation – biochemical, FRET, CFP-Ran, YFP-importin-beta, homogeneous, primary screen; cell-free CFP-Ran/YFP-importin-beta FRET ratio; inhibition, % (test concentration not listed); 1.1% of 300,000 active;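 active = most replicates above 15%; inconclusive = exactly half above 15%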;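 also: 0% = DMSO wells and 100% = Ran loaded with GDP instead of GTP; wells of about 40 µL received 100 nL stock; the first replicate is given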
# B2AR ag: agonists of human beta-2 adrenergic receptor inducing internalization; P07550; Am2.2-beta2AR cells, FAP receptor internalization, flow cytometry; reference of the scale not given here; response, % (no concentration beside the values); 0.43% of 340,000 active;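 active = response above a set limit, near 3 SD of response in nonfluorescent compounds, cut at about 42% in these data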;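 also: stock transfer was 100 nL into about 11 µL; a reference agonist was the positive control; negative values mostly stem from fluorescent compounds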
# Vif A3G: HIV-1 Vif–A3G interaction blockers – biochemical, TR-FRET, GST-Vif 1-94, biotin-A3G peptide, dose response retest, primary screen (AID 1117319); TR-FRET GST-Vif / biotin-A3G peptide binding; higher % means a stronger effect; test concentration not given here; strong numbers were not always called active; inhibition, %; hits with a dose series show IC50 in µM; 0.57% of 260,000 active;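 active = above the screen mean plus three standard deviations and confirmed in dose response; inconclusive = results disagree or hit not tested in dose response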;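 also: Vif residues 1-94 fused to GST binding biotinylated APOBEC3G peptide 110-148; 0% = full assay without inhibitor and 100% = GST in place of GST-Vif; retest series ran down from 100 µM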
# ALR H2O2 inh: blocks human ALR sulfhydryl oxidase activity. P55789. 3.8% of 290,000 active. purified ALR, DTT oxidation, H2O2 HRP-luminol luminescence. inhibition, % (no concentration beside the values);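 active = mean and each replicate at 75% or more; inconclusive = only one of the two met; inactive = neither met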;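 also: stock transfer was 7.5 nL into about 7.5 µL; 0% = neutral wells and 100% = wells with inactivated enzyme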
# Target sequence (P55789 whole entry, looked up): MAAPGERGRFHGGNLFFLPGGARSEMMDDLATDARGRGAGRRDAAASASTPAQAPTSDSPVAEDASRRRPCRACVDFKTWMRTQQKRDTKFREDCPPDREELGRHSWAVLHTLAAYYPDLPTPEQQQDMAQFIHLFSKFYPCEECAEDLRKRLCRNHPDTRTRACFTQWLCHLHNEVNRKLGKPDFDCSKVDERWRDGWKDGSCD
# HNF4A DNA FP: change in binding of human HNF4 alpha to DNA | HNF4a-FITC DNA binding, fluorescence polarization, 1 h | activity change, % at 10 µM | 0.3% of 360,000 active | AID 1224865; in the data active = activity change above about 30%, passing the limit was not always enough;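 also: controls were the assay level and a saturating level of protein; the project sought stronger binding though the title names inhibitors; some compounds called inactive have numbers as strong as hits; positive values seem to mean higher polarization but the record does not say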
# Target sequence (P41235 whole entry, looked up): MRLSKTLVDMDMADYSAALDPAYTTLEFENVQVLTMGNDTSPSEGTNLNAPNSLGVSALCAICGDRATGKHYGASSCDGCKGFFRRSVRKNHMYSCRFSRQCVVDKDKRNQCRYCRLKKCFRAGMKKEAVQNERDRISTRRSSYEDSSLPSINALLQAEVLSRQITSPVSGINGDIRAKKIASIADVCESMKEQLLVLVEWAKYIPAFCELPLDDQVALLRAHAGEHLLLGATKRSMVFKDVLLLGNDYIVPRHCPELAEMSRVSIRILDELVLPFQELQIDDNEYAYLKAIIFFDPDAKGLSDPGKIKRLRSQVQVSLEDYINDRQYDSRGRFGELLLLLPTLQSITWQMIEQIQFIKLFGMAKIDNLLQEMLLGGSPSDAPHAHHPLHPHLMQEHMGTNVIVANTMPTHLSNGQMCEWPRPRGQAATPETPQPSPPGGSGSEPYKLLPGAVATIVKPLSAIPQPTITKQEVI
# Calb FLC: C. albicans growth modulation with fluconazole; C. albicans CaCi-2 (fluconazole-resistant clinical isolate) + fluconazole, Alamar Blue growth, 48 h; growth inhibition, % (concentration not given with the values); 0.57% of 300,000 active;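 active = most replicates above 75%; inconclusive = exactly half above 75%; inactive = most below 75%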;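 also: all wells also contain fluconazole at 8 µg/ml as a sub-toxic cotreatment; 0% = median of DMSO wells and 100% = median of geldanamycin control wells; wells of about 8 µL received 7.5 nL stock; the first replicate is given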
# LANA-H2A inh: blocks KSHV LANA binding to histone H2A/H2B; cell-free LANA-H2A/H2B peptide, fluorescence polarization; inhibition, % (test concentration not listed); 0.6% of 320,000 active; Q9QR71; AID 2629; in the data active = inhibition mostly above about 10%, no sharp cut-off; inactive = mostly below about 6.7%;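 also: stock transfer was 7.5 nL into about 10 µL; 0% = median of vehicle wells and 100% = median of positive control wells; one replicate is shown; the record names a cut of 25% in any replicate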
# Starred values were filed as active, the others as inactive; ? = inconclusive; . = no result given; & = joins results of further samples.
mol | RanGTP-Imp inh | B2AR ag | Vif A3G | ALR H2O2 inh | HNF4A DNA FP | Calb FLC | LANA-H2A inh
O=C(Nc1ccc(N2CCCC2)cc1)c1ccccc1[N+](=O)[O-] | ? | -6 | . | . | -2.3 | 1 | 2.1
CCC(C(=O)OCC(=O)Nc1cc(OC)ccc1OC)c1ccccc1 (configuration not stated) | -4.7 | 4 | 8% | 4 | 0.8 | 0 | 6.9
CCc1ccccc1NC(=O)NNS(=O)(=O)c1cc(C)ccc1C | -0.5 | -2 | -6% | 14 | -4.2 | 12 | 1.2
C=CCSc1nccc(-c2cc(Cl)sc2Cl)n1 | -1.0 | -6 | 12% | -17 | -1.2 | 0 | -3.0
COc1ccc(-c2cc(C(F)F)n3ncc(C(=O)N4CCN5CCCC5C4)c3n2)cc1 (configuration not stated) | 0.1 | -2 | ? | -5 | 3.3 | 26 | -1.9
O=C(CSc1nnc(CNC(=O)c2c(F)cccc2Cl)o1)NCc1ccc(F)cc1 | -1.8 | 5 | . | -2 | 2.7 | -7 | 5.7
C=CCSc1nnc(NC(=O)c2ccc(N3CCCC3=O)cc2)s1 | . | 0 | -6% | -4 | -3.2 | . | .
CCOC(=O)/C=C(\C)N1N=C(c2ccccc2)CC1c1ccccc1 (configuration not stated) | ? | -3 | 1% | 6 | 6.8 | -23 | -0.8
CCSc1nnc(NC(=O)CCc2ccccc2)s1 | -2.8 | -1 | -12% | -7 | 2.3 | -14 | 1.9
OC(CNCC1COc2ccccc2O1)COc1ccc(Cl)cc1 (configuration not stated) | 4.2 | -4 | . | -2 | -0.4 | -108 | -1.2
COc1ccc(/C=N/n2cnn(Cc3ccccc3Cl)c2=S)cc1OC | -1.6 | 13 | . | 3 | -0.7 | -6 | 2.6
O=C1OCC2=C1C(c1ccc(F)cc1)CC(=O)N2c1ccc(F)cc1 (configuration not stated) | 1.8 | -9 | 4% | -16 | 2.4 | 6 | 4.5
O=c1cnn(Cc2ccc(F)cc2)c2ccccc12 | -0.1 | -5 | . | 1 | -0.4 | -2 | 0.6
COc1ccc(O)c(/C=N/NC(=S)Nc2cccc(S(=O)(=O)N(C)C)c2)c1 | -3.4 | 0 | 13% | 73 | 3.4 | -4 | -2.8
C/C(=N\NC(=O)CCc1ccccc1)C1C(=O)c2ccccc2C1=O | -4.3 | 6 | 6% | . | -1.0 | ? | 3.3
Cc1ccc(-n2c(Cc3cccn3C)nnc2SCC(=O)Nc2cc(C)on2)cc1 | -0.1 | 6 | 2% | 0 | -3.9 | 4 | 9.7
O=C(OCC1OC2OC3(CCCCC3)OC2C2OC3(CCCCC3)OC12)c1ccccc1 (configuration not stated) | 0.9 | 8 | -6% | 0 | 2.2 | 6 | -14
O=C(Nc1cc(C(F)(F)F)ccc1-n1cncn1)c1ccc(Br)cc1 | -0.1 | -8 | -3% | -2 | 1.3 | 0 | 5.7
C=CCn1c(SCC(=O)c2ccc(O)c(O)c2)nnc1-c1ccccc1OC | 1.7 | -7 | 6% | 64 | -2.5 | -26 | 2.4
CC(C)c1ccc2c(c1)[C@H]1OCC[C@H]1[C@@H](c1cccs1)N2 | -2.6 | 3 | -2% | 54 | -1.7 | -1 | -2.2
O=C(COc1c(F)c(F)cc(F)c1F)NC(=O)NC1CCCC1 | -1.4 | 6 | -6% | . | 0.6 | 7 | -3.3
Cc1cc(C(=O)COC(=O)[C@H](C)NC(=O)c2ccco2)c(C)n1Cc1ccco1 | -0.9 | 5 | 7% | 2 | 1.8 | 17 | 7.1
O=C(NCC1CCCO1)c1ccc2[nH]c3c(c2c1)CCCC3 (configuration not stated) | . | 18 | -3% | . | -3.2 | . | .
COC(=O)C(=C/C(C)=C/c1cccs1)C(=O)OC | -3.2 | 4 | 9% | -2 | -0.4 | 34 | -0.3
COc1ccc(S(=O)(=O)N(C)C)cc1NC(=O)[C@H](Cc1ccccc1)N1C(=O)c2ccccc2C1=O | 1.5 | -3 | . | -2 | 2.2 | -3 | -3.0
Cc1ccc2c(CC(=O)N3CCc4ccccc43)coc2c1 | -0.9 | 4 | 9% | -6 | 0.4 | -2 | 1.8
O=C(NNC(=O)C1CC=CCC1)c1ccccc1Br (configuration not stated) | 5.2 | 3 | -1% | 0 | -2.4 | 4 | -6.9
CC(=O)Nc1ccc(-c2nnc(SCc3c(C)cc(C)cc3C)n2C)cc1 | 1.3 | 17 | 29% | 34 | -2.5 | -23 | -1.9
COc1cc(C#Cc2c(-c3cncn3C)n(C)c3ccc(-c4cnc(N5CCOCC5)nc4)cc23)cc(OC)c1 | . | 13 | . | -3 | 6.6 | . | -2.2
CN1CCN(CCCNC(=O)CN2C(=O)COc3ccccc32)CC1 | 3.2 | 8 | . | -2 | 2.4 | 21 | -1.8
CC(C)c1ccc(N2C(=O)CSC23C(=O)N2CCCc4cccc3c42)cc1 (configuration not stated) | 0.3 | -1 | -6% | -6 | 2.0 | 35 | 5.5
CCc1ccccc1NC(=O)C1CCN(C(=O)c2cccs2)CC1 | 0.9 | -7 | . | . | 1.4 | -16 | 2.7
CC(C)(C)OC(=O)NCCCC1=CC2=CC(=O)C(C)(OC(=O)c3ccc(Cl)nc3)C(=O)C2=CO1 (configuration not stated) | -50 | . | . | 0 | . | -3 | 3.2
C/C(=C1/SC(=S)N(CCC(=O)O)C1=O)c1ccc(O)cc1 | -3.6 | 2 | -2% | 98* | 2.2 | 7 | -0.3
CSc1nnc(N2C(=O)C(O)=C(C(=O)c3ccco3)C2c2ccccc2)s1 (configuration not stated) | -2.0 | 11 | . | 11 | -12 | -6 | -2.1
O=C(NCCS(=O)(=O)N1CCN(c2ccccc2F)CC1)c1ccc(Br)o1 | 0.5 | -7 | 1% | -7 | 0.2 | -2 | 2.3
O=C(c1c(F)cccc1F)N1CCCC(c2nc(-c3ccc(Cl)cc3)no2)C1 (configuration not stated) | 2.5 | 1 | . | -4 | -0.8 | -8 | -2.9
Clc1ccc(-c2nc(-c3cnccn3)no2)cc1 | -0.4 | -15 | -2% | . | 2.8 | 1 | -6.5
C=CC[C@H](CC(=O)N[C@H](CO)Cc1ccccc1)C(=O)N[C@@H](COC(=O)[C@H](CC=C)CC(=O)OC(C)(C)C)Cc1c[nH]c2ccccc12 | . | 1 | . | 0 | -3.5 | . | -2.3
CC(=O)c1nnn(-c2ccccc2C#N)c1C | -0.5 | 11 | . | . | 7.5 | -2 | -2.2

# Exported with each value named: three of the compounds above
COc1cc(C#Cc2c(-c3cncn3C)n(C)c3ccc(-c4cnc(N5CCOCC5)nc4)cc23)cc(OC)c1
  RanGTP-Imp inh = .; B2AR ag = 13; Vif A3G = .; ALR H2O2 inh = -3; HNF4A DNA FP = 6.6; Calb FLC = .; LANA-H2A inh = -2.2
CN1CCN(CCCNC(=O)CN2C(=O)COc3ccccc32)CC1
  RanGTP-Imp inh = 3.2; B2AR ag = 8; Vif A3G = .; ALR H2O2 inh = -2; HNF4A DNA FP = 2.4; Calb FLC = 21; LANA-H2A inh = -1.8
CC(C)c1ccc(N2C(=O)CSC23C(=O)N2CCCc4cccc3c42)cc1 (configuration not stated)
  RanGTP-Imp inh = 0.3; B2AR ag = -1; Vif A3G = -6%; ALR H2O2 inh = -6; HNF4A DNA FP = 2.0; Calb FLC = 35; LANA-H2A inh = 5.5

# Other records follow:
# Results follow in this order: RanGTP-Imp inh	B2AR ag	Vif A3G	ALR H2O2 inh	HNF4A DNA FP	Calb FLC	LANA-H2A inh
COc1ccc(-c2nnc(SCC(=O)Nc3cc(F)ccc3C)o2)cc1
 : -2.0	-19	-3%	-11	4.8	5	-0.1
O=C(CC(SCCO)c1ccc([N+](=O)[O-])cc1)c1ccco1 (configuration not stated)
 : 2.5	9	14%	6	-0.3	-3	1.3
O=C(CNC(=O)c1nc[nH]c1C(=O)N1CCN(c2ccccc2)CC1)OCc1ccccc1
 : 0.4	2	.	51	-1.6	-4	-2.8
O=C(Nc1ccc2nc3n(c(=O)c2c1)CCCCC3)c1cc([N+](=O)[O-])ccc1F
 : 4.3	12	.	5	-3.4	-11	2.5
CC[C@@]12C(=O)N(c3cccc(F)c3)C(=O)N1[C@H](c1cccc(C)c1)[C@@H]1C(=O)N(Cc3ccccc3)C(=O)[C@@H]12
 : -2.8	0	.	1	0.3	12	4.2
COc1ccc(C(=O)N2CCN(c3ccccn3)CC2)cc1
 : -1.1	-16	-1%	-5	1.6	?	0.8
CC(C)CC(=O)N1CCN(S(=O)(=O)c2ccc(C3CCCCC3)cc2)CC1
 : .	-4	.	-4	-0.1	.	-5.1
CN(C)c1cccc(C(=O)NCc2ccc(Cl)cc2)c1
 : 5.0	-5	-5%	9	0.4	-20	-0.1
CCc1ccc(S(=O)(=O)NC(=S)Nc2ccccc2)cc1
 : 2.1	-6	12%	51	-3.0	24	-7.8
O=C(NCc1ccccc1)C(c1ccccc1)N(Cc1ccc2c(c1)OCO2)C(=O)Cc1cccs1 (configuration not stated)
 : ?	6	0%	1	-2.3	-7	2.6
COc1ccc(CNC(=O)c2cccc(C)c2[N+](=O)[O-])cc1
 : -1.0	-3	-6%	4	0.3	?	-3.7
COc1ccc(Cl)cc1NC(=O)CCc1ccccc1
 : 3.1	4	6%	-22	-3.8	-28	5.8
Cc1cccc(CCN2C(N(C)C)=NC[C@@H]2CC(C)C)c1
 : .	-1	.	-34	-1.7	.	1.0
O=C(OCC(=O)C12CC3CC(CC(C3)C1)C2)c1ccc(O)cc1
 : .	1	.	13	1.0	.	-1.6
Cc1cccc(NC(=O)CN2C(=O)N/C(=C\c3ccccc3OCc3ccc(C(=O)O)cc3)C2=O)c1
 : 2.7	-4	0%	4	3.0	-3	-3.2
CCCCC1(C)NC(=O)N(CC(=O)Nc2ccc(Cl)cc2C)C1=O (configuration not stated)
 : .	-2	-5%	-2	0.8	.	0.8
CCC1Oc2ccc(C)cc2N(CC(=O)NCCCN2CCOCC2)C1=O (configuration not stated)
 : 0.8	-6	.	1	2.0	-2	-2.5
COc1ccc(N2CCN(C(=O)CNC(=O)c3ccc(Br)o3)CC2)cc1
 : -3.9	5	.	94*	1.5	-10	-3.0
Cc1cc(NS(=O)(=O)c2ccc(NC(=O)/C=C/c3cccc(Cl)c3)cc2)no1
 : -3.9	1	0%	6	0.7	-4	9.4
OC(CN1CCN(C(c2ccccc2)c2ccccc2)CC1)c1ccccc1 (configuration not stated)
 : 4.8	-1	0%	-5	0.6	-4	2.8
Clc1ccc(C(c2nnnn2C2CCCC2)N2CCN(Cc3ccncc3)CC2)cc1 (configuration not stated)
 : 1.9	-6	6%	-10	-1.1	3	4.8
COc1ccc(NC(=O)C2CCCNC2)cc1OCC(C)C (configuration not stated)
 : -2.8	-3	?	6	2.1	3	1.3
CC(=O)N(C)c1ccc(NC(=O)c2cnn(C)c2)cc1
 : -2.9	2	?	-6	0.9	2	0.6
COc1ccc(CNC(=O)CN2C(=O)C(c3ccccc3)Oc3cccnc32)cc1 (configuration not stated)
 : 0.3	2	.	14	-0.7	-2	-1.7
Cc1nc(N/N=C/c2ccc(Br)cc2)cc(N2CCOCC2)n1
 : 2.9	-3	.	.	-0.4	7	3.7
CC(=O)Nc1cccc(NC(C)=O)n1
 : 2.5	-5	5%&-3%	-10	-1.1	8	-1.3
CCCCCc1cc(=O)oc2c(C(CCN(CC)CC)c3ccc(N(C)C)cc3)c(OC)cc(OC)c12 (configuration not stated)
 : ?	11	.	.	12	-17	-1.5

# Screening results: PubChem, several laboratories
